Screening results as filed in PubChem BioAssay.
Biofilm kill mix – mixtures killing C. albicans biofilm. inhibition, % at 7.6 µM. AID 1242. 120,000 compounds, 0.02% hits. C. albicans biofilm persisters + clotrimazole, fluorescence viability; primary screen in compound mixtures of four per well;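 active = inhibition above 30.3% in the primary screen of four-compound pools, then above 30% when the compound was retested; inconclusive = passed the primary limit but could not be retested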;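 also: compounds exposed to preformed 24 h biofilms for 48 h; the number belongs to the whole pool; some results filed as inactive read as strong as hits; inactives centre near 12; 0% = biofilm with clotrimazole alone and 100% = kill control; retested singly at about 60 µM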
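Assay system: C. albicans biofilms / Medium: RPMI/MOPS medium, pH 7.0 / Schedule: biofilm formation 24 h, compound exposure 48 h, 37 °C / Measured by: Alamar Blue fluorescence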
The depositor's hits bear a star. A portion of the library, so the mix of outcomes need not match the whole.

`CN(C)CCNC(=O)/C(=C/c1ccc(-c2cccc([N+](=O)[O-])c2)o1)NC(=O)c1ccccc1` gave Biofilm kill mix 11.
`CC(=O)Nc1ccc(NC=C(C#N)C#N)cc1` gave Biofilm kill mix 25.
Screening CC(=O)/C(=N\Nc1ccccc1Cl)Sc1nnc(-c2ccccc2)n1-c1ccccc1 returned Biofilm kill mix 22.
Screening CSCCC(NS(=O)(=O)c1cccs1)C(=O)NCc1ccc(C)cc1 (stereo not drawn) returned Biofilm kill mix 13.
`CC(OC(=O)Cc1n[nH]c(=O)c2ccccc12)C(=O)Nc1cccc([N+](=O)[O-])c1` (stereo not drawn) gave Biofilm kill mix 9.
`COC(=O)c1ccccc1NC(=O)CNc1cc(OC)c(OC)cc1C` gave Biofilm kill mix 23.
For COc1cccc(-n2nc(-c3ccnn3-c3cccc(Cl)c3)c(=O)n(C)c2=O)c1 the results were Biofilm kill mix 19.
Screening CN(C(=O)CSc1nnc(Nc2ccccc2)s1)C1CCS(=O)(=O)C1 (stereo not drawn) returned Biofilm kill mix 12.
For CCOC(=O)c1ccccc1OCc1cc(/C=N/NC(=O)c2ccncc2)ccc1OC the results were Biofilm kill mix 2.
`C=CCn1c(C(CC)CC)nc2ccccc21` gave Biofilm kill mix 15.
For Cc1cc(C(=O)NN)c(Cl)cc1Cl the results were Biofilm kill mix 13.
`CC(c1ccon1)N(C)Cc1c(C(=O)N(C)Cc2ccccc2)nc2ccccn12` (stereo not drawn) gave Biofilm kill mix 10.
Screening COc1ccc(C2/C=C\CN(S(=O)(=O)c3ccc(C)cc3)[C@H](Cc3ccccc3)C(=O)N2Cc2ccc(F)cc2)cc1 (stereo partly drawn) returned Biofilm kill mix 15.
`C=CCNC(=O)/C(=C\c1ccc(OC)cc1)NC(=O)c1ccc([N+](=O)[O-])cc1` gave Biofilm kill mix -10.
For Cc1ccc(N(C(=O)c2sc(C)nc2C)C(C(=O)NC(C)(C)C)c2ccncc2)cc1 (stereo not drawn) the results were Biofilm kill mix 37.
NC(=O)NC(=O)CC1S/C(=N/N=C2\CSC(=O)N2)NC1=O (stereo not drawn) was read as Biofilm kill mix 8.
Screening COc1ccc(CCNC(=O)CSc2nc(O)c(CCC(C)C)c(=O)[nH]2)cc1OC returned Biofilm kill mix 14.
Screening C/C(=N/NC(=O)COc1cc(C)ccc1C(C)C)C(=O)O returned Biofilm kill mix 14.
CCOc1ccccc1NC(=O)NCc1ccccc1 was read as Biofilm kill mix 13.
For O=C(Cc1ccccc1)NNS(=O)(=O)c1ccc([N+](=O)[O-])cc1 the results were Biofilm kill mix 9.
COc1ccc(NC(=S)NCCCc2ccccc2)cc1 was read as Biofilm kill mix 13.
COc1ccc(N=C2SCC(=O)N2Cc2ccccc2)cc1 was read as Biofilm kill mix 19.
Screening Cc1ccc(N2CCN(S(=O)(=O)N3CCCCC3)CC2)cc1C returned Biofilm kill mix 12.
Screening COCCCNC(=O)c1cccc2c(=O)c(C)c(-c3ccccc3)oc12 returned Biofilm kill mix 7.
For CCOc1cccc(CNCCO)c1OCc1ccc(Cl)cc1 the results were Biofilm kill mix 17.
Screening CC(C)(C)NC(=O)COC(=O)CCC(=O)c1ccc(Cl)cc1 returned Biofilm kill mix 15.
S=c1nc(-c2ccccc2Cl)n(Cc2cccnc2)c2c1CCCC2 was read as Biofilm kill mix 13.
Screening O=C(COc1nsnc1N1CCOCC1)N/N=C/c1ccccc1O returned Biofilm kill mix 3.
O=c1oc2ccccc2c(O)c1C=Nc1cccnc1 was read as Biofilm kill mix 16.
Screening O=C(c1cc(F)ccc1F)C1CCCN(C(=O)CCCN2CCCCC2=O)C1 (stereo not drawn) returned Biofilm kill mix 29.
`Nc1[nH]nc2nc(-c3ccccc3)[nH]c(=O)c12` gave Biofilm kill mix 19.
`COc1ccccc1OCCCC(=O)Nc1ccc(N2CCOCC2)cc1` gave Biofilm kill mix -3.
For Cc1ccnc(N2CCC(C(=O)NCc3ccc(F)cc3)CC2)n1 the results were Biofilm kill mix 12.
For COc1ccccc1CNC(=O)COC(=O)Cc1c(Cl)cccc1Cl the results were Biofilm kill mix 16.
`O=C(Cn1c2c(sc1=O)C1c3ccccc3OCC1CS2)Nc1ccc(Cl)c(Cl)c1` (stereo not drawn) gave Biofilm kill mix 14.
For CCN(C(=O)c1cc(Cl)ccc1OC)c1ccccc1C the results were Biofilm kill mix 12.

Of the compounds above, these have a nitro group on carbon.
`CN(C)CCNC(=O)/C(=C/c1ccc(-c2cccc([N+](=O)[O-])c2)o1)NC(=O)c1ccccc1` gave Biofilm kill mix 11.
`CC(OC(=O)Cc1n[nH]c(=O)c2ccccc12)C(=O)Nc1cccc([N+](=O)[O-])c1` (stereo not drawn) gave Biofilm kill mix 9.
`C=CCNC(=O)/C(=C\c1ccc(OC)cc1)NC(=O)c1ccc([N+](=O)[O-])cc1` gave Biofilm kill mix -10.
For O=C(Cc1ccccc1)NNS(=O)(=O)c1ccc([N+](=O)[O-])cc1 the results were Biofilm kill mix 9.

Later entries:
Screening O=C(CNc1cccc2ccccc12)N/N=C/c1cccc(Oc2ccccc2)c1 returned Biofilm kill mix 19.
`Cc1nc(C(=O)Nc2ccccc2)sc1C1(C)CC(c2cccc([N+](=O)[O-])c2)=NO1` (stereo not drawn) gave Biofilm kill mix 16.
`CC(C)(C)CC(=O)NC(=S)NCc1ccco1` gave Biofilm kill mix 18.
For CCn1ncc(-c2ccnc3cc(C(=O)O)nn23)c1C the results were Biofilm kill mix 15.
`NCCCC[C@H](NC(=O)C1CCNCC1)c1nnc([C@@H](N)Cc2ccc(O)cc2)o1` gave Biofilm kill mix 21.
For CN(CC(=O)Nc1ccc(F)cc1)C(=O)CSc1nc2ncc(Cl)cc2[nH]1 the results were Biofilm kill mix 19.
`Cc1ccc2c(c1)c1nnc(SCC(=O)N3CCN(c4ccc(F)cc4)CC3)nc1n2CC(=O)O` gave Biofilm kill mix 7.
Screening O=C(N/N=C1\CCCc2ccccc21)c1cccc(Br)c1 returned Biofilm kill mix 10.
OCCCNC(=S)Nc1ccc(Br)cc1Cl was read as Biofilm kill mix 22.
For O=C(Cc1ccccc1)NNC(=O)c1cnccn1 the results were Biofilm kill mix 2.
`COc1ccc(Cn2c(-c3ccc(OC)c(O)c3)nc3ccccc32)cc1O` gave Biofilm kill mix 3.
Screening Cc1c2ccccc2nc2c(F)c(NCCO)c(F)c(F)c12 returned Biofilm kill mix -2.
`Cc1cc(NC(=O)CSc2n[nH]c(N)n2)no1` gave Biofilm kill mix 5.
`CSCCC(=O)Nc1nc(-c2ccccn2)cs1` gave Biofilm kill mix 15.
Screening COc1ccc(CNS(=O)(=O)NCc2ccc(OC)c(OC)c2)cc1 returned Biofilm kill mix 18.
Screening FC(F)Sc1ccc(NC(=S)NC(c2ccccc2)c2ccccc2)cc1 returned Biofilm kill mix 1.
For CCOC(=O)C1CCN(C(=O)CSc2ccccc2Cl)CC1 the results were Biofilm kill mix 18.
For CC(C)c1onc(C(=O)Nc2sc3c(c2C#N)CCC3)c1[N+](=O)[O-] the results were Biofilm kill mix 23.
COc1cccc(-n2c([S-])c(C(=O)Nc3ccc(C(F)(F)F)cc3)[n+]3ccccc23)c1 was read as Biofilm kill mix 12.
For CN(C)S(=O)(=O)c1ccc2c(c1)nc(CCC(=O)Nc1ccc(N3CCOCC3)cc1)n2C the results were Biofilm kill mix 16.
Screening Cc1cc(C(=O)OCC(=O)c2cccc([N+](=O)[O-])c2)c2ccccc2n1 returned Biofilm kill mix 15.
Screening Cc1nc(Nc2nc3ccccc3o2)nc(C)c1C(=O)Nc1ccc(F)cc1 returned Biofilm kill mix 16.
`COc1cc(C=O)ccc1Oc1nc(Nc2ccc(F)cc2F)nc(N2CCOCC2)n1` gave Biofilm kill mix 7.
O=S1(=O)CCN(OCc2ccc(F)cc2Cl)CC1 was read as Biofilm kill mix 6.
Screening CC(=O)NC(Cc1ccccc1)C(=O)NC1CCN(C(=O)c2ccc([N+](=O)[O-])cc2)CC1 (stereo not drawn) returned Biofilm kill mix 19.
Cc1ccc(N(C(=O)C(F)(F)F)C(C(=O)NC2CCCCC2)c2ccncc2)cc1C (stereo not drawn) was read as Biofilm kill mix 9.
`CC(=O)Nc1ccc2ccc3cccc4ccc1c2c34` gave Biofilm kill mix 3.
CCC(c1nnnn1Cc1cccs1)N1CCN(C(=O)c2ccco2)CC1 (stereo not drawn) was read as Biofilm kill mix 41.
For O=C(CN1CCN(Cc2ccccc2)CC1)N1CCN(c2ccccc2)CC1 the results were Biofilm kill mix 13.
Screening CCOC(=O)Cc1nc2cc(Cl)ccc2o1 returned Biofilm kill mix 47.
`C=CCNC(=S)Nc1ccc(C)cc1[N+](=O)[O-]` gave Biofilm kill mix 2.
CC1CC(C)CN(CCCSc2ccccc2)C1 (stereo not drawn) was read as Biofilm kill mix 12.
`Cn1cc(/C=C2\SC(=S)N(NC(=O)c3cccc(Cl)c3)C2=O)c2ccccc21` gave Biofilm kill mix 20.
Cc1ccc(CNC(=O)COC(=O)c2cnc(C)cn2)cc1 was read as Biofilm kill mix 16.
For CN(C)CCNC(C(=O)Nc1cccc(C(F)(F)F)c1)c1ccccc1 (stereo not drawn) the results were Biofilm kill mix 11.
Screening COc1c2occc2c(OC)c2c(=O)cc(C)oc12 returned Biofilm kill mix 11.
Screening CCO/C=C1/C(=O)N(Cc2ccccc2)C(=O)c2ccccc21 returned Biofilm kill mix 5.
For Cc1csc(Sc2ccc(C(=O)OCC(=O)Nc3ccc(F)cc3[N+](=O)[O-])cc2[N+](=O)[O-])n1 the results were Biofilm kill mix 11.
CC(=O)Oc1ccc2nc(CN3C(=O)c4ccc([N+](=O)[O-])cc4C3=O)oc(=O)c2c1 was read as Biofilm kill mix -1.
For Cc1ccc(NC(=O)CCn2cc(C(F)(F)F)ccc2=O)cc1 the results were Biofilm kill mix 13.
Cc1ccc(NC(NC(=O)OCCn2c([N+](=O)[O-])cnc2C)C(Cl)(Cl)Cl)cc1 (stereo not drawn) was read as Biofilm kill mix -5.
Screening Cc1ccccc1Nc1c(-c2ccc(N3CCOCC3)cc2)nc2ncccn12 returned Biofilm kill mix 20.
`Cc1cc(C)nc(NS(=O)(=O)c2ccc(N=Cc3c(C)[nH]n(-c4ccccc4)c3=O)cc2)n1` gave Biofilm kill mix 23.
For Cc1ccc(N(CC(=O)NCc2ccncc2)S(C)(=O)=O)cc1 the results were Biofilm kill mix 19.
`Cn1c(=O)c2ncn(CC(=O)NCCOCc3ccccc3Cl)c2n(C)c1=O` gave Biofilm kill mix 13.
`CCO[C@@H]1OC(C(=O)Nc2ccccc2)=C[C@H](c2ccccc2)[C@H]1CCCO` gave Biofilm kill mix 18.
`COc1ccccc1N/C(N)=N/c1nc(C(F)(F)F)cc(=O)[nH]1` gave Biofilm kill mix 13.
Screening O=C(Oc1ccccc1N1CCOCC1)c1ccccc1 returned Biofilm kill mix 32.

Reprinted at random: 3 records from the list
For Cc1csc(Sc2ccc(C(=O)OCC(=O)Nc3ccc(F)cc3[N+](=O)[O-])cc2[N+](=O)[O-])n1 the results were Biofilm kill mix 11.
Cc1ccc(NC(NC(=O)OCCn2c([N+](=O)[O-])cnc2C)C(Cl)(Cl)Cl)cc1 (stereo not drawn) was read as Biofilm kill mix -5.
Screening O=C(Oc1ccccc1N1CCOCC1)c1ccccc1 returned Biofilm kill mix 32.

Continued.
Screening CCOC(=O)/C=C1\SCC(=O)N1CC(=O)NCc1cccc(Cl)c1 returned Biofilm kill mix 23.
`O=C(Nc1ccccc1F)c1cnccn1` gave Biofilm kill mix 14.
`CC1CC(=O)Nc2ccccc2N1S(=O)(=O)c1cccs1` (stereo not drawn) gave Biofilm kill mix 23.
`NC(=O)CCN1CCN(Cc2cn[nH]c2-c2cccc3ccccc23)CC1` gave Biofilm kill mix 5.
`C/C(CC(=O)NCc1ccc(Cl)cc1)=N\NC(=O)c1ccccc1F` gave Biofilm kill mix -6.
Screening CC(=O)Nc1nnc(SCC(=O)N2CCCc3ccccc32)s1 returned Biofilm kill mix 9.
For CCOC(=O)C1(Cc2cccc(OC)c2)CCCN(Cc2cc(C(C)C)n[nH]2)C1 (stereo not drawn) the results were Biofilm kill mix 12.
`NC(=O)c1cc([N+](=O)[O-])ccc1NCCN1C(=O)c2ccccc2C1=O` gave Biofilm kill mix 20.
For O=C(NCc1ccc(F)cc1)C(c1ccccc1)N(C(=O)c1csnn1)C1CC1 (stereo not drawn) the results were Biofilm kill mix -1.
For Cc1nc2ccccc2c(=O)n1NC(=O)c1cccc([N+](=O)[O-])c1 the results were Biofilm kill mix 12.
For NCc1ccc(S(N)(=O)=O)cc1 the results were Biofilm kill mix 0.
`O=C(NCC1COc2ccccc2O1)C1(c2ccccc2)CCCC1` (stereo not drawn) gave Biofilm kill mix 25.

A section from the list above:
Screening CC(=O)Nc1nnc(SCC(=O)N2CCCc3ccccc32)s1 returned Biofilm kill mix 9.
For CCOC(=O)C1(Cc2cccc(OC)c2)CCCN(Cc2cc(C(C)C)n[nH]2)C1 (stereo not drawn) the results were Biofilm kill mix 12.
`NC(=O)c1cc([N+](=O)[O-])ccc1NCCN1C(=O)c2ccccc2C1=O` gave Biofilm kill mix 20.
For O=C(NCc1ccc(F)cc1)C(c1ccccc1)N(C(=O)c1csnn1)C1CC1 (stereo not drawn) the results were Biofilm kill mix -1.
For Cc1nc2ccccc2c(=O)n1NC(=O)c1cccc([N+](=O)[O-])c1 the results were Biofilm kill mix 12.
For NCc1ccc(S(N)(=O)=O)cc1 the results were Biofilm kill mix 0.

(further entries)
Screening CC(C)(C)C1C/C(=C/c2ccccn2)C(=O)/C(=C/c2ccccn2)C1 (stereo not drawn) returned Biofilm kill mix inconclusive.
`Cc1cc(C)cc(NC(=S)NCCc2c[nH]c3ccccc23)c1` gave Biofilm kill mix 18.
Screening O=C(COC(=O)/C=C/c1cccc(C(F)(F)F)c1)NCc1ccccc1 returned Biofilm kill mix 8.
For CCCS(=O)(=O)c1ccc(COC(=O)c2ccc(NC(C)=O)cc2)cc1 the results were Biofilm kill mix 11.
`O=C(O)c1nccnc1C(=O)NCc1csc2ccc(Cl)cc12` gave Biofilm kill mix 8.
Cn1cccc1CNCc1ccc(F)cc1 was read as Biofilm kill mix 10.
Screening O=C1CC(/C=C/c2ccccc2)=Nc2ccccc2N1 returned Biofilm kill mix -10.
